VCAM-1 imaging – inhibitors of TNFa-induced VCAM-1 surface display, imaging, high-content imaging, pooled HUVEC, TNFa stimulus (AID 456); one-dose inhibition, % at 5 µM; IC50 in µM for titrated hits; actives 0.2% (n = 10,000); HUVEC TNFa-induced VCAM-1 surface expression, immunofluorescence imaging; numbers were filed only for top-ranked candidate wells;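 active = top tenth filtered wells with inhibition above zero that passed visual or statistical confirmation; inactive = the rest, including hits rejected on review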;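 also: 0% = stimulated vehicle wells and 100% = unstimulated cells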
VCAM-1 up imaging – boosters of cytokine-driven VCAM-1 levels – imaging, high-content imaging, pooled HUVEC, TNFa stimulus (AID 457); Pooled HUVEC, TNFa-induced VCAM-1 immunofluorescence imaging; hits of this screen are not shown here; calls only; actives 0.2% (n = 10,000);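 active = a top-ranked rise in VCAM-1 staining upheld on image or statistical review; inactive = the rest, including candidates rejected on review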;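 also: compounds tested at 5 µM in the well; cells exposed to compound for 24 hours before fixing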
VCAM-1 down – suppression of endothelial VCAM-1 upregulation – cell-based, plate reader, pooled HUVEC, TNFa stimulus (AID 454); HUVEC TNFa-induced VCAM-1 surface immunofluorescence, plate reader; numbers were filed only for top-ranked candidate wells; inhibition, % at 5 µM; actives 0.2% (n = 10,000);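 active = compound among top-ranked inhibitors of TNF-induced VCAM-1 adhesion protein staining, with the hit upheld by image or statistical review; inactive = the rest, including hits rejected on review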;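 also: 0% = TNFa with vehicle and 100% = cells without TNFa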
FPR ligand – ligands of human FPR, also counter-screen for FPRL1 ligands. FPR-expressing cells, fluorescent ligand binding, flow cytometry. inhibition, %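 (tested at 6.7 µM)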. actives 0.74% (n = 24,000). AID 440;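 also: 0% = buffer wells and 100% = receptor blocker peptide wells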
Target sequence (P21462 whole entry, looked up): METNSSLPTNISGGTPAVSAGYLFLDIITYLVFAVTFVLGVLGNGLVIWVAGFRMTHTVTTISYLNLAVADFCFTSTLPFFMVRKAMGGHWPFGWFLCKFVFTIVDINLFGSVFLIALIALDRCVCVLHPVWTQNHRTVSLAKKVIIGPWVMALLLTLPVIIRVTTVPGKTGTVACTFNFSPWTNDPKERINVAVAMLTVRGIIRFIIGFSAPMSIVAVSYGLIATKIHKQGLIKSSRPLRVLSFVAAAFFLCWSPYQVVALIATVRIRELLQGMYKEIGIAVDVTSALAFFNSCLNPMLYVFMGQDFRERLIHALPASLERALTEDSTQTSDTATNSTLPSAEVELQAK
FPRL1 ligand – human FPRL1 ligand, with FPR counter-screen; FPRL1-expressing cells, fluorescent ligand binding inhibition, flow cytometry; actives 0.3% (n = 24,000); inhibition, %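 (tested at 6.7 µM)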;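 also: 0% = buffer alone and 100% = receptor blocker peptide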
Target sequence (P25090 whole entry, looked up): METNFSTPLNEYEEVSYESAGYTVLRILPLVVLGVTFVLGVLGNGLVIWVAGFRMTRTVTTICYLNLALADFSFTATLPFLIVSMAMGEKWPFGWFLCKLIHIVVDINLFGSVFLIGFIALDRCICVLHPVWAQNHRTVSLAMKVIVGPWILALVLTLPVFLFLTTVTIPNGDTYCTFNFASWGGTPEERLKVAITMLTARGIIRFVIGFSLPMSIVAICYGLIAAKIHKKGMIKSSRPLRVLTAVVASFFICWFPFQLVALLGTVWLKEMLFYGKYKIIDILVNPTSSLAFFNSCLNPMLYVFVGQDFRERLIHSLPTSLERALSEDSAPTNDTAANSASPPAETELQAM
Numbers without * were called inactive.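 The calls were made as follows, unless noted: active = mean above 30%; inconclusive = self-fluorescent; inactive = the rest.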 A portion of the library; the hit share may differ from the screen's.

Results for O=C(CSc1oc(-c2ccco2)nc1S(=O)(=O)c1ccc(F)cc1)NCC1CCCO1 (configuration not stated) ?
FPR ligand: 3; FPRL1 ligand: -4

How did C=CCn1c(=O)[nH]c2cc(C(=O)N3CCN(c4ccc(C(C)=O)cc4)CC3)ccc2c1=O do in these assays?
VCAM-1 imaging: inactive; VCAM-1 up imaging: inactive; VCAM-1 down: inactive; FPR ligand: -9; FPRL1 ligand: 4

Results for COCCn1c(=S)[nH]c2cc(C(=O)N3CCN(Cc4ccc5c(c4)OCO5)CC3)ccc2c1=O ?
FPR ligand: 8; FPRL1 ligand: 4

What do the screens show for `O=C(NCCN1CCCCCC1)C1CCN(S(=O)(=O)N2CCOCC2)CC1`?
FPR ligand: -3; FPRL1 ligand: 8

How did CCOC(=O)c1ccccc1NC(=O)c1c(O)c2ccccc2n(CC)c1=O do in these assays?
VCAM-1 imaging: inactive; VCAM-1 up imaging: inactive; VCAM-1 down: inactive; FPR ligand: 10; FPRL1 ligand: 9

Results for COc1ccc(CCNS(=O)(=O)c2cccc3nsnc23)cc1OC ?
FPR ligand: -6; FPRL1 ligand: -8

What do the screens show for `CC1(C)NC(=O)N(CNc2cc(Cl)ccc2Cl)C1=O`?
VCAM-1 imaging: inactive; VCAM-1 up imaging: inactive; VCAM-1 down: inactive; FPR ligand: 2; FPRL1 ligand: 0

What do the screens show for `CCc1c(C(=O)Nc2ccc(OC)cc2)[nH]c(C)c1C(C)=O`?
FPR ligand: 2; FPRL1 ligand: 1

How did O=C(NCCN1CCOCC1)c1cc(=O)[nH]c2ccc(Br)cc12 do in these assays?
FPR ligand: 4; FPRL1 ligand: -3

How did CC(=O)N1CCCc2cc(S(=O)(=O)N(C)Cc3ccccc3)ccc21 do in these assays?
FPR ligand: 0; FPRL1 ligand: -4

How did COc1ccc(CCn2c(=N)c(C#N)cc3c(=O)n4ccccc4nc32)cc1 do in these assays?
VCAM-1 imaging: inactive; VCAM-1 up imaging: inactive; VCAM-1 down: inactive; FPR ligand: 1; FPRL1 ligand: -6

What do the screens show for `COc1cc2c(cc1OC)C(c1ccccc1O)N(C1CC(=O)N(c3ccccc3)C1=O)CC2` (configuration not stated)?
VCAM-1 imaging: inactive; VCAM-1 up imaging: inactive; VCAM-1 down: inactive; FPR ligand: -2; FPRL1 ligand: -2

How did Cc1cc2c(=O)n(Cc3ccco3)c(SCC(=O)NCc3ccco3)nc2s1 do in these assays?
VCAM-1 imaging: inactive; VCAM-1 up imaging: inactive; VCAM-1 down: inactive; FPR ligand: 0; FPRL1 ligand: 1

How did CC1Cc2ccccc2N1C(=O)C1CCCN(S(=O)(=O)c2cccc3cccnc23)C1 (configuration not stated) do in these assays?
FPR ligand: -6; FPRL1 ligand: -12

Results for COC(=O)c1ccc(C(=O)OC)c(NC(=O)c2oc(C)nc2C)c1 ?
FPR ligand: -2; FPRL1 ligand: 0

How did Cc1ccc(-c2nc(S(=O)(=O)c3ccc(F)cc3)c(SCC(=O)NCC3CCCO3)o2)cc1 (configuration not stated) do in these assays?
FPR ligand: 14; FPRL1 ligand: 6

Results for CCCCCn1c(CN2CCN(c3cccc(Cl)c3)CC2)nc2c1c(=O)[nH]c(=O)n2C ?
FPR ligand: 4; FPRL1 ligand: -5

How did COc1cc2c(=O)nc3n(c2cc1OC)C(c1ccccc1)N=C(N)N3 (configuration not stated) do in these assays?
VCAM-1 imaging: inactive; VCAM-1 up imaging: inactive; VCAM-1 down: inactive; FPR ligand: 18; FPRL1 ligand: 3

How did CCn1c(=O)c2cc(C(=O)N3CCCC3)sc2c2ccccc21 do in these assays?
FPR ligand: 5; FPRL1 ligand: -1

What do the screens show for `COc1ccc(CCNC(=O)c2ccc(N3CCCC3=O)cc2)cc1OC`?
VCAM-1 imaging: inactive; VCAM-1 up imaging: inactive; VCAM-1 down: inactive; FPR ligand: 3; FPRL1 ligand: 0

Results for c1ccc(-n2ncc3c(NC4CCCCCC4)ncnc32)cc1 ?
VCAM-1 imaging: inactive; VCAM-1 up imaging: inactive; VCAM-1 down: inactive; FPR ligand: 12; FPRL1 ligand: 6

How did CCOC(=O)N1CCC(NC(=O)C2CCN(Cc3nc(-c4ccc(CC)cc4)oc3C)CC2)CC1 do in these assays?
FPR ligand: -19; FPRL1 ligand: -1

Results for O=C(O)CSc1nc2c(c(=O)[nH]1)CCCC2 ?
FPR ligand: 4; FPRL1 ligand: 7

Results for O=C(CSc1nnc(CNC(=O)c2cccs2)o1)c1ccccc1 ?
FPR ligand: 0; FPRL1 ligand: 6

Results for O=c1c2[nH]c3ccc(F)cc3c2ncn1CCN1CCN(Cc2ccccc2)CC1 ?
FPR ligand: -7; FPRL1 ligand: 3

Results for CCN(CC)CCNC(=O)CCn1c(=S)[nH]c2cc3c(cc2c1=O)OCO3 ?
VCAM-1 imaging: inactive; VCAM-1 up imaging: inactive; VCAM-1 down: inactive; FPR ligand: -6; FPRL1 ligand: -3

What do the screens show for `Cc1cc(Cl)c(S(=O)(=O)NC2CCCCC2)cc1OCC(=O)Nc1nncs1`?
VCAM-1 imaging: inactive; VCAM-1 up imaging: inactive; VCAM-1 down: inactive; FPR ligand: 9; FPRL1 ligand: -6

How did CCCCNC(=O)CC1N=C2c3ccccc3N=C(SCC(=O)Nc3ccccc3C)N2C1=O (configuration not stated) do in these assays?
FPR ligand: 29; FPRL1 ligand: 4

What do the screens show for `CCCCOC(=O)Cn1c(=N)n(CCN2CCOCC2)c2ccccc21`?
VCAM-1 imaging: inactive; VCAM-1 up imaging: inactive; VCAM-1 down: inactive; FPR ligand: -3; FPRL1 ligand: 2

How did CCOc1ccccc1N1Cc2cc(C)c(C)cc2C1 do in these assays?
VCAM-1 imaging: inactive; VCAM-1 up imaging: inactive; VCAM-1 down: inactive; FPR ligand: 8; FPRL1 ligand: 2

Reprinted from the part before: two compounds, followed by the next part.
What do the screens show for `CCCCOC(=O)Cn1c(=N)n(CCN2CCOCC2)c2ccccc21`?
VCAM-1 imaging: inactive; VCAM-1 up imaging: inactive; VCAM-1 down: inactive; FPR ligand: -3; FPRL1 ligand: 2

How did CCOc1ccccc1N1Cc2cc(C)c(C)cc2C1 do in these assays?
VCAM-1 imaging: inactive; VCAM-1 up imaging: inactive; VCAM-1 down: inactive; FPR ligand: 8; FPRL1 ligand: 2

Results for CCC(C)N1CC(C(=O)NC2CCCCC2)CC1=O (configuration not stated) ?
FPR ligand: 2; FPRL1 ligand: -2

What do the screens show for `Cc1cc(NC(=O)CSc2c3c(nc4ccccc24)CCC3)no1`?
FPR ligand: 3; FPRL1 ligand: -3

How did COc1ccc(Cl)cc1NC(=O)Cn1c(=O)n2nc(C)nc2c2ccccc21 do in these assays?
FPR ligand: -1; FPRL1 ligand: -4

How did Cn1c(=O)oc2cc(S(=O)(=O)NCCN3CCN(c4ccccc4F)CC3)ccc21 do in these assays?
FPR ligand: -1; FPRL1 ligand: 3

How did Cc1nc(CNS(=O)(=O)c2ccc3c(c2)OCCO3)cs1 do in these assays?
VCAM-1 imaging: inactive; VCAM-1 up imaging: inactive; VCAM-1 down: inactive; FPR ligand: -2; FPRL1 ligand: 2

What do the screens show for `Cn1ccnc1SCC(=O)c1ccc(Br)cc1`?
FPR ligand: 2; FPRL1 ligand: 7

Results for CC1CCC2C(C1)c1sc(=O)[nH]c1SC2(C)C (configuration not stated) ?
VCAM-1 imaging: inactive; VCAM-1 up imaging: inactive; VCAM-1 down: inactive; FPR ligand: -7; FPRL1 ligand: 6

Results for Cc1cc(Nc2ccc(C(=O)O)cc2)n2nc(C)nc2n1 ?
VCAM-1 imaging: inactive; VCAM-1 up imaging: inactive; VCAM-1 down: inactive; FPR ligand: -7; FPRL1 ligand: 1

Results for O=C(Cc1ccc(-n2cccc2)cc1)N1CCN(c2ccccc2F)CC1 ?
FPR ligand: 3; FPRL1 ligand: 0

Results for COc1ccc(-n2c(=O)cc(N3CCCCCC3)[nH]c2=O)cc1 ?
FPR ligand: -4; FPRL1 ligand: -5

What do the screens show for `COc1ccc(C(CC(=O)O)NC(=O)COc2ccccc2)cc1OC` (configuration not stated)?
FPR ligand: 6; FPRL1 ligand: 6

What do the screens show for `CCCCC1(CC)C(=O)NC(=O)NC1=Nc1ccc(OC)cc1` (configuration not stated)?
FPR ligand: 3; FPRL1 ligand: -5

What do the screens show for `O=S(=O)(Nc1cccnc1)c1cc(Cl)ccc1Cl`?
VCAM-1 imaging: inactive; VCAM-1 up imaging: inactive; VCAM-1 down: inactive; FPR ligand: 3; FPRL1 ligand: 1

What do the screens show for `Cc1cc(C)cc(-n2nnc(C(=O)NCc3ccco3)c2N)c1`?
VCAM-1 imaging: inactive; VCAM-1 up imaging: inactive; VCAM-1 down: inactive; FPR ligand: -5; FPRL1 ligand: 3

What do the screens show for `COc1ccc(C(=O)O)cc1Nc1cc(C)nc2ncnn12`?
FPR ligand: -4; FPRL1 ligand: 0

How did CCOC(=O)c1sc(=S)n(C)c1N do in these assays?
FPR ligand: 2; FPRL1 ligand: -6

Results for CC1(C)CC(=O)C(C(C2=C(O)CC(C)(C)CC2=O)c2cccc(O)c2)C(=O)C1 (configuration not stated) ?
FPR ligand: -1; FPRL1 ligand: 0

What do the screens show for `C[N+](C)(C)CCCCCCCCCC[N+](C)(C)C`?
VCAM-1 imaging: inactive; VCAM-1 up imaging: inactive; VCAM-1 down: inactive; FPR ligand: -3; FPRL1 ligand: 7

What do the screens show for `CCCNC(=O)N1CCN(S(=O)(=O)c2ccc(C)c(C)c2)CC1`?
VCAM-1 imaging: inactive; VCAM-1 up imaging: inactive; VCAM-1 down: inactive; FPR ligand: -6; FPRL1 ligand: 8

Results for O=C(CCCCn1c(=O)[nH]c2ccccc2c1=O)NCc1ccc2c(c1)OCO2 ?
FPR ligand: -1; FPRL1 ligand: 2

Results for Cc1ccc2nc(C(F)(F)F)c(C#N)c(N)c2c1 ?
VCAM-1 imaging: 75%*; VCAM-1 up imaging: inactive; VCAM-1 down: inactive; FPR ligand: 3; FPRL1 ligand: -2

What do the screens show for `Cc1c(C)c2cc3c4c(oc3c(C)c2oc1=O)CCCC4`?
FPR ligand: 6; FPRL1 ligand: 24

What do the screens show for `O=C(/C=N/O)NCc1ccncc1`?
VCAM-1 imaging: inactive; VCAM-1 up imaging: inactive; VCAM-1 down: inactive; FPR ligand: -2; FPRL1 ligand: -8

How did Cc1ccc(CCNC(=O)C2CCCN2S(=O)(=O)c2ccc3c(c2)CCC(=O)N3)cc1 (configuration not stated) do in these assays?
VCAM-1 imaging: inactive; VCAM-1 up imaging: inactive; VCAM-1 down: inactive; FPR ligand: 0; FPRL1 ligand: 0

Results for O=C(CCS(=O)(=O)c1cccc2nonc12)N1CC(=O)N(CCc2ccccc2)C(=O)C1 ?
FPR ligand: 0; FPRL1 ligand: 8

Of the compounds above, 9 contain two or more sulfur atoms:
Results for O=C(CSc1oc(-c2ccco2)nc1S(=O)(=O)c1ccc(F)cc1)NCC1CCCO1 (configuration not stated) ?
FPR ligand: 3; FPRL1 ligand: -4

Results for COc1ccc(CCNS(=O)(=O)c2cccc3nsnc23)cc1OC ?
FPR ligand: -6; FPRL1 ligand: -8

How did Cc1cc2c(=O)n(Cc3ccco3)c(SCC(=O)NCc3ccco3)nc2s1 do in these assays?
VCAM-1 imaging: inactive; VCAM-1 up imaging: inactive; VCAM-1 down: inactive; FPR ligand: 0; FPRL1 ligand: 1

How did Cc1ccc(-c2nc(S(=O)(=O)c3ccc(F)cc3)c(SCC(=O)NCC3CCCO3)o2)cc1 (configuration not stated) do in these assays?
FPR ligand: 14; FPRL1 ligand: 6

Results for O=C(CSc1nnc(CNC(=O)c2cccs2)o1)c1ccccc1 ?
FPR ligand: 0; FPRL1 ligand: 6

What do the screens show for `Cc1cc(Cl)c(S(=O)(=O)NC2CCCCC2)cc1OCC(=O)Nc1nncs1`?
VCAM-1 imaging: inactive; VCAM-1 up imaging: inactive; VCAM-1 down: inactive; FPR ligand: 9; FPRL1 ligand: -6

How did Cc1nc(CNS(=O)(=O)c2ccc3c(c2)OCCO3)cs1 do in these assays?
VCAM-1 imaging: inactive; VCAM-1 up imaging: inactive; VCAM-1 down: inactive; FPR ligand: -2; FPRL1 ligand: 2

Results for CC1CCC2C(C1)c1sc(=O)[nH]c1SC2(C)C (configuration not stated) ?
VCAM-1 imaging: inactive; VCAM-1 up imaging: inactive; VCAM-1 down: inactive; FPR ligand: -7; FPRL1 ligand: 6

How did CCOC(=O)c1sc(=S)n(C)c1N do in these assays?
FPR ligand: 2; FPRL1 ligand: -6

From PubChem
